# Assay outcomes from PubChem BioAssay.
# Rce1 inhib = inhibitors of yeast Ras-converting enzyme; 290,000 tested, 0.27% active; yeast membranes, quenched prenylated peptide cleavage fluorescence; Q03530; AID 2563; calls only;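 active = fall in fluorescence gain of 50% or more versus controls, with final raw signal at or below 3038400; inconclusive = same 50% fall but final raw signal above 3038400; inactive = fall in fluorescence gain under 50%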;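 note: plate controls were neutral control wells for no effect and wells lacking membranes for full effect; tested at 10 µM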
# PABP FP inh = blocks human PABP binding to poly(A) RNA; inhibition, % at 35 µM; 290,000 tested, 1% active; fluorescence polarization;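 active = 50% or more with normal probe brightness, or confirmed in later tests; inconclusive = above 50% with abnormal brightness, or retests that disagree; inactive = below 50% or failed in later tests; about a fifth of its hits are not listed in these tables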;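 note: calls also rest on retests at 20 µM and on dose response follow-up; controls were probe without protein and protein plus probe with vehicle; some compounds called inactive have numbers as strong as hits; many hits fall short of the cut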
# Target sequence (P11940 whole entry, looked up): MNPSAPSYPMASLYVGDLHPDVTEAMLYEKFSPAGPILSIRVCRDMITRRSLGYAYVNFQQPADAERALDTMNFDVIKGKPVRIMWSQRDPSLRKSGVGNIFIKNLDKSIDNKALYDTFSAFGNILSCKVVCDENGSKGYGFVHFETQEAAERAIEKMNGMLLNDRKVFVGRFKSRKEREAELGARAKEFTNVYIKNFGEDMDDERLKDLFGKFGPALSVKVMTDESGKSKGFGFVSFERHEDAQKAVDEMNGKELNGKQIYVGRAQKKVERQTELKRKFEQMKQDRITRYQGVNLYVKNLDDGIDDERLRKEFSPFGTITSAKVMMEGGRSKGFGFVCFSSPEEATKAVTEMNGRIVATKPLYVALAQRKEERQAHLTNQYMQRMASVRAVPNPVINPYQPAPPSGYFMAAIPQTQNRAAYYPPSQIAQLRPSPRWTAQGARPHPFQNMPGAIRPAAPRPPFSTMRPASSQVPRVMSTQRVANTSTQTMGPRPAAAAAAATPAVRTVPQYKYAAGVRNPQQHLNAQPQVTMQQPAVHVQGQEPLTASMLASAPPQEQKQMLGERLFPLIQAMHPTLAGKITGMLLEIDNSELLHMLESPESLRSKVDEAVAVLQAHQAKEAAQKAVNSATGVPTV
# HIV Env fusion = inhibitors of HIV Env-mediated cell fusion; HeLa-JRFL Env/CEM21 cell fusion, luciferase; 360,000 tested, 1.1% active; inhibition, % at 12.3 µM;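 active = mean replicate inhibition score of at least 50 and every replicate individually at or above 50; inconclusive = only one of the two criteria met; inactive = mean below 50 and not all replicates reaching 50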;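 note: 0% = plate neutral controls and 100% = maraviroc near 300 nM; one replicate is shown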
# CSC inhib = cancer stem cell inhibition | 300,000 tested, 1.1% active | cancer stem cell-like cells viability, luminescence | inhibition, % at 7.5 µM | AID 2717;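 active = mean at 75% or more and at least half the replicates too; inconclusive = mean and replicates disagree; tested in HMLE shEcad cells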;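 note: 0% = median of negative and 100% = median of positive control wells; the first replicate is given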
# eIF4H FP inh = inhibitors of RNA binding by human eIF4H; AID 2012; Q15056; inhibition, % at 35 µM; 290,000 tested, 0.94% active; eIF4H fluorescence polarization binding assay;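 active = 50% or more with normal probe brightness, or confirmed in later tests; inconclusive = above 50% with abnormal brightness, or retests that disagree; inactive = below 50% or failed in later tests; about a fifth of its hits are not listed in these tables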;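 note: calls also rest on retests at 20 µM and on dose response follow-up; 0% = protein and probe with vehicle and 100% = probe without protein; strong numbers were not always called active; many hits fall short of the cut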
# Yeast UUG start = yeast start codon fidelity modulation | S. cerevisiae UUG-firefly luciferase reporter, luminescence/redox ratio | activity score, % at 18.7 µM | AID 602363 | 350,000 tested, 0.13% active;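 active = replicate mean at a twofold rise or more, about +100% in these data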;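 note: firefly luciferase made from a UUG start codon reports start codon fidelity; reporter light over untreated wells divided by growth signal over untreated wells; some hits fall short of that in this replicate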
# MT1-MMP act inh = MT1-MMP (human) activation inhibition; P50281; HT1080 RFP-PRO-GFP cells, GFP/RFP ratio fluorescence, overnight; percent of plate control window, DMSO zero; GFP/RFP ratio change, % at 20 µM; 360,000 tested, 0.061% active;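 active = GFP/RFP ratio change of at least 30% with cell ATP level not reduced by more than half and red fluorescence within 50% of control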; note: strong numbers were not always called active
#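 Material – HT1080 RFP-PRO-GFP cells · Control set – DMSO wells and RFP-L50D-GFP cells · Incubation – overnight cell settling, then overnight compound exposure, 37 °C, 5% CO2 · Compound dosing – single-point 20 µM compound, 1% DMSO · Read-out – GFP/RFP fluorescence ratio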
# eIF4H FP inh retest = also measured in eIF4H FP inh; calls as there; inhibition, %; compound at 20 µM; confirmation average;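 mean of two retest wells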
# PABP FP inh retest = recorded beside PABP FP inh, whose call it bears; inhibition, %; compound at 20 µM; confirmation repeats;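 mean of two retest wells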
# MT1-MMP act inh RFP = recorded beside MT1-MMP act inh, whose call it bears; RFP signal change, %; measured here: RFP expression control read;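 0 = vehicle wells; hits needed this value within 50% of zero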
# Starred values were filed as active, the others as inactive; i = inactive; ? = inconclusive; · = not tested or not shown. The list is partial (hit frequency here may not be typical).
SMILES,Rce1 inhib,PABP FP inh,HIV Env fusion,CSC inhib,eIF4H FP inh,Yeast UUG start,MT1-MMP act inh,MT1-MMP act inh RFP,others
Cc1ccc(S(=O)(=O)N2CC(=NN=C(N)N)C2)cc1,·,2,2,5,-9,3,4,2,
CCN(CC)C(=O)C(=O)N/N=C/c1ccc(C(=O)OC)cc1,i,4,-8,-3,13,·,-3,4,
COc1ccc(C2CC(O)(c3ccccc3)Oc3cc(OC)c(OC)c(OC)c32)cc1 (stereo not drawn),i,-5,-7,20,-6,-3,-3,-4,
c1ccc(CCNc2ncnc3scc(C4COc5ccccc5O4)c23)cc1 (stereo not drawn),i,-19,-16,26,-8,-4,-9,-18,
c1ccc2c(c1)OCCOCCOc1ccccc1OCCOCCO2,i,7,13,-6,-13,·,0,3,
CSCCC(NS(=O)(=O)/C=C/c1ccccc1)C(=O)O (stereo not drawn),i,-2,-4,-13,3,·,8,4,
Cc1ccc(S(=O)(=O)NCC(=O)Nc2cccc([N+](=O)[O-])c2)cc1,i,4,-4,0,4,·,-5,-3,
O=C(CSCc1cccc(Cl)c1)NCc1ccc2c(c1)OCO2,i,2,11,5,-7,-5,-6,0,
CN1CCC/C1=C1/C(=O)N(c2ccccc2)N=C1NC(=O)Nc1cccc(Cl)c1,i,4,-6,5,0,·,-2,1,
Cc1ccc(NC(=O)COC(=O)c2ccc(Cl)cc2)cc1S(=O)(=O)N(C)C,i,9,5,1,-4,·,-2,1,
O=C(OCc1nc2ccccc2s1)c1ccccc1O,i,-8,-14,-13,3,·,-2,4,
CCC(C(=O)NC(C)(C)C)N(Cc1ccco1)C(=O)CNS(=O)(=O)c1ccc(OC)cc1 (stereo not drawn),i,5,27,·,-3,4,-3,1,
COC(=O)C(C)Oc1cc(OC(C)C(=O)OC)c2c(-c3ccccc3)cc(=O)oc2c1 (stereo not drawn),i,-2,3,-4,0,2,-3,0,
CCCCn1c(=S)[nH]c2cc(S(=O)(=O)N3CCOCC3)ccc21,·,·,·,-24,·,1,-1,-1,
Cc1cc(OCc2ccccc2)ccc1/C(O)=C1/C(=O)C(=O)N(Cc2cccnc2)C1c1ccncc1 (stereo not drawn),i,-7,-9,-9,-11,·,-4,-1,
COCC(C)NCc1cc(Br)ccc1OC (stereo not drawn),i,15,-3,-18,19,-15,3,6,
C=C(C)CSc1nc(N)cc(=O)[nH]1,i,-12,·,-1,-4,-5,-2,1,
CC(C)/C=N/Nc1nc(-c2ccc(Br)cc2)cs1,i,11,-9,36,3,·,9,3,
O=c1ccn([C@@H]2O[C@H](CNCc3ccc(-c4cc(C(F)(F)F)ccc4Cl)o3)[C@@H](O)[C@H]2O)c(=O)[nH]1,·,·,25,·,·,35,3,1,
COc1ccccc1C1CN=NC12CCCc1ccccc1C2=O (stereo not drawn),i,-4,-107,·,-7,10,7,2,
COCCNc1oc(-c2ccc(F)cc2)nc1C#N,i,-3,·,10,-3,-11,3,2,
CCN(Cc1ccccc1)S(=O)(=O)c1c(C(=O)N2CCCC2)c(C)n(C)c1C,i,-1,16,-1,-5,10,1,1,
COC(=O)Cn1c(CN2CCN(c3ccc(F)cc3)CC2)nc2c1c(=O)n(C)c(=O)n2C,i,1,·,·,11,-3,-5,-26,
O=S(=O)(c1cc(Cl)ccc1Cl)n1ccnc1,·,-3,5,·,-5,·,4,2,
CCN(C(=O)COC(=O)c1cc2c(s1)CCCC2)c1c(N)n(Cc2ccccc2)c(=O)[nH]c1=O,·,·,·,7,·,-23,-2,-6,
COc1ccccc1C(C)Nc1nc(-c2cccnc2)nc2ccccc12 (stereo not drawn),i,8,17,0,-6,-17,-2,-4,
O=C(Nc1cccc([N+](=O)[O-])c1)c1ccc(CN2CCOCC2)cc1,i,-1,15,13,3,-6,2,-4,
COc1ccc(CCNC(=O)CN(c2ccc(OC)c(OC)c2)S(C)(=O)=O)cc1,i,6,-94,-11,25,-23,0,0,
Cc1ccc(NC(=O)c2ccccc2)cc1-n1cnnn1,i,-2,28,-20,-1,·,-3,-3,
O=C(COc1ccc2ccccc2c1Br)N1CCN(c2ccccn2)CC1,i,14,·,12,-1,0,2,1,
COc1ccc(NC(=O)C[C@H]2C(=O)N(c3ccccc3)C[C@@H]2C)cc1,·,·,-6,·,·,-8,0,4,
COc1cccc2[nH]c(=O)c(-c3ccccc3)cc12,i,2,-12,-15,-1,-1,0,-4,
CCCCc1cc(=O)oc2cc(OCC(=O)NCc3ccccn3)ccc12,i,3,4,2,-6,-7,0,-1,
O=C(CSc1nc(-c2ccccc2)nc2c1Cc1ccccc1O2)Nc1ccccc1,i,-10,·,-11,0,·,·,·,
CCCN1CCC(=O)N([C@H](CO)Cc2ccccc2)CC1,i,-7,-18,12,-10,12,2,3,
CC(=O)C1=C(O)C2(C)c3c(O)c(C)c(O)c(C(C)=O)c3OC2CC1=O (stereo not drawn),·,·,2,·,·,-3,-9,-6,
Cc1ccc(-n2c(O)c(C=Nc3ccc(S(=O)(=O)Nc4ncccn4)cc3)c3ccccc3c2=O)cc1C,i,-8.1*,65*,11,95,·,-10,-11,eIF4H FP inh retest=2;PABP FP inh retest=95*
CC(C)=N/N=C(/c1ccc([N+](=O)[O-])cc1)C12CN3CN(CN(C3)C1)C2,i,-3,-9,-6,1,·,3,2,
COc1ccccc1C(=O)NC(=O)Nc1c(C)cc(C)cc1C,i,-3,6,4,-1,-14,-3,-25,
CC(C)N(C(=O)CSc1nc(COc2ccccc2)nc2ccccc12)C(C)C,·,20,4,5,-6,-5,-10,-8,
COc1ccc(OC)c(S(=O)(=O)n2cccn2)c1,i,-7,-5,-2,-4,-8,-8,-3,
O=C(CNc1cccc2ccccc12)N/N=C/C(Br)=C/c1ccccc1,i,11,·,47,11,-9,0,2,
CC1CC1C(=O)Nc1nc2ccc(Cl)cc2s1 (stereo not drawn),i,·,-28,12,·,·,6,-21,
O=C(CCc1nnc2ccc(N3CCCC3)nn12)Nc1cc(F)ccc1F,i,5,-7,-12,-11,-24,1,0,
CCN(C(=O)CSc1nnc(-c2ccc(Cl)cc2)n1C)C1CCS(=O)(=O)C1 (stereo not drawn),i,-2,-54,-7,-30,·,-5,-5,
CC(C)CC1NC(=O)N(CC(=O)Nc2ccccc2-c2ccccc2)C1=O (stereo not drawn),i,-5,15,10,4,·,-2,1,
COc1c(C)cc(C(=O)C2CCCN(Cc3c(C)n(C)n(-c4ccccc4)c3=O)C2)cc1C (stereo not drawn),i,-4,-17,-8,-2,·,-1,5,
Cc1cc(NC(=O)Nc2ccccc2[N+](=O)[O-])no1,i,-1,-4,-2,4,·,-1,0,
O=C(O)C(c1ccccc1)N1C(=O)/C(=C\c2ccc(-c3cccc(Cl)c3)o2)SC1=S (stereo not drawn),i,76*,-6,71,?,1,8,21,PABP FP inh retest=126*
Cc1cc(C)n2nc(C(=O)OCC(=O)NC3CCS(=O)(=O)C3)nc2n1 (stereo not drawn),·,·,-25,·,·,-10,1,4,
O=c1c2c3c(sc2n(CCN2CCCC2)c(=O)n1Cc1ccccc1)CCCCC3,i,-2,47,-15,-2,10,3,-5,
CCOC(=O)CSc1nc2c(c(=O)n1-c1ccc(OCC)cc1)SCC2,i,4,·,3,-4,-9,5,-1,
O=C(CN1CCC(n2nnc3ccccc32)CC1)Nc1ccc2c(c1)CCC2,i,-6,?,-13,6,10,5,-2,
CCc1ccc2c(c1)cc(CN(C(=S)Nc1ccccc1C)C1CC1)c1nnnn12,i,-6,23,12,4,-16,-3,-1,
Cc1sc2ccccc2c1CNC[C@H]1O[C@@H](n2cnc(C(N)=O)n2)[C@H](O)[C@@H]1O,·,·,-6,·,·,-17,2,2,
Cc1ccc(OCCNS(=O)(=O)c2ccc(Cl)cc2)cc1,·,·,·,-3,·,-11,-2,-1,
O=C(Nc1cccc(Cl)c1Cl)c1csc([C@@H]2O[C@H](CO)[C@@H](O)[C@H]2O)n1,·,·,-5,·,·,-12,1,-1,
CN(C)CCn1nnnc1SCC1=C(C(=O)O)N2C(=O)[C@@H](NC(=O)Cc3csc(N)n3)[C@H]2SC1,·,·,11,-6,·,-12,0,3,
COc1ccc(CCNC(=O)c2ccccc2NC(=O)c2ccco2)cc1OC,i,3,·,-4,0,-4,10,-1,
COCCN1C(=O)C(=O)/C(=C(/O)c2ccc(S(=O)(=O)N3CCCCC3)cc2)C1c1ccc(OC)c(OC)c1 (stereo not drawn),i,19,0,-4,68,-13,0,3,eIF4H FP inh retest=22;PABP FP inh retest=20

# (list continues)
SMILES,Rce1 inhib,PABP FP inh,HIV Env fusion,CSC inhib,eIF4H FP inh,Yeast UUG start,MT1-MMP act inh,MT1-MMP act inh RFP,others
COc1ccc(C(C)(C)C)cc1NC(=O)Cn1cnnn1,i,-5,24,2,-4,·,3,1,
CCOC(=O)N1CCN(CC(=O)Nc2ccc(F)c(F)c2F)CC1,i,-9,3,-3,-2,·,-2,-1,
O=C(CN1C(=O)/C(=C/c2cccc(Br)c2)SC1=S)NC1=NCCS1,·,-4,12,10,12,·,0,3,
Cc1ccc(C2(C)NC(=O)N(CC(=O)NNC(=O)c3cc(C)oc3C)C2=O)cc1 (stereo not drawn),i,·,2,-13,·,-13,6,9,
Cc1ccc(S(=O)(=O)N(Cc2ccccc2)c2ccccc2C(=O)N2CCCCC2)cc1,i,4,?,·,-2,-5,-4,-4,
CCOc1ccc(N2C=Nc3ccc(OCC)cc3C2)cc1,i,0,12,14,-2,-8,4,-2,
Cc1nc(C(=O)Nc2cccc(Cl)c2Cl)nn1-c1cc(OC(C)C)c(Cl)cc1Cl,i,-9,-17,6,-19,31,2,-2,
CC(C)CCOc1ccc(-c2c(=O)n(OCc3ccc([N+](=O)[O-])cc3)c3ccccc3[n+]2[O-])cc1,i,-16,-21,48,-1,-14,6,-2,
O=C1OC(Nc2ccc3c(c2)OCO3)c2ccccc21 (stereo not drawn),i,12,·,9,22,-17,-13,-9,
CCN(CC(=O)NCc1cccs1)C(=O)c1ccc(S(=O)(=O)Nc2ccccc2C)cc1,i,·,-16,-16,·,2,1,-2,
Cc1nc(/C(N)=N/OC(=O)c2cccc(Cl)c2)c(C(F)(F)F)o1,i,10,-1,·,2,8,-2,-3,
Cc1ccc2[nH]c3c(=O)n(CCCN4CCOCC4)cnc3c2c1,i,-10,-48,-8,-11,20,8,4,
Cc1ccc(S(=O)(=O)N2CCN(S(=O)(=O)N3CCCCC3)CC2)c(C)c1,i,0,·,-2,0,·,3,-7,
COc1ccccc1C(=O)NCCn1cc(SCC(=O)NCC2CCCO2)c2ccccc21 (stereo not drawn),i,0,·,-4,-1,-7,-1,-7,
OC1COC(OCC2OC(OCc3ccccc3)C(O)C(O)C2O)C(O)C1O (stereo not drawn),i,0,·,-7,2,-17,2,6,
O=C(NCc1ccc2c(c1)OCO2)c1ccc2c(c1)C(=O)N(Cc1cccnc1)C2=O,i,-14,·,-5,7,-4,-1,-2,
C/C=C/C(=O)Nc1ccccc1Br,i,0,·,-5,-10,-15,-4,-2,
O=C(O)c1ccc(Cn2cc(C(F)(F)F)ccc2=O)cc1,i,-8,-15,-11,-1,-10,3,3,

# Reprinted at random: two compounds from above, in no set order.
SMILES,Rce1 inhib,PABP FP inh,HIV Env fusion,CSC inhib,eIF4H FP inh,Yeast UUG start,MT1-MMP act inh,MT1-MMP act inh RFP,others
Cc1ccc(C2(C)NC(=O)N(CC(=O)NNC(=O)c3cc(C)oc3C)C2=O)cc1 (stereo not drawn),i,·,2,-13,·,-13,6,9,
Cc1ccc2[nH]c3c(=O)n(CCCN4CCOCC4)cnc3c2c1,i,-10,-48,-8,-11,20,8,4,
